Rce1 inhib: inhibitors of yeast Ras-converting enzyme; Q03530; yeast membranes, quenched prenylated peptide cleavage fluorescence; calls only; 0.27% of 290,000 active;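 active means fall in fluorescence gain of 50% or more versus controls, with final raw signal at or below 3038400; inconclusive means same 50% fall but final raw signal above 3038400; inactive means fall in fluorescence gain under 50%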;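 further: plate controls were neutral control wells for no effect and wells lacking membranes for full effect; tested at 10 µM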
Target sequence (Q03530 whole entry, looked up): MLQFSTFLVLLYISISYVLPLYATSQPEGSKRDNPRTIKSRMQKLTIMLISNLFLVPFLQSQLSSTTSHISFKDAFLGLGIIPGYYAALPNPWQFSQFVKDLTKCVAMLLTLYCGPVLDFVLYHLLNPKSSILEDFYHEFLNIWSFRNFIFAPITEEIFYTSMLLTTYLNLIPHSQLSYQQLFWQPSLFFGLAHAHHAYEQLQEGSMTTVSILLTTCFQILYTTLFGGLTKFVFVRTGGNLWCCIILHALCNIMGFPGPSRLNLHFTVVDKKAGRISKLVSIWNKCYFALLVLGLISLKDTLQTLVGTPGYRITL
MT1-MMP act inh: inhibitors of human MT1-MMP activation; HT1080 RFP-PRO-GFP cells, GFP/RFP ratio fluorescence, overnight; percent of plate control window, DMSO zero; AID 651647; 0.061% of 360,000 active; GFP/RFP ratio change, % at 20 µM; P50281;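 active means GFP/RFP ratio change of at least 30% with cell ATP level not reduced by more than half and red fluorescence within 50% of control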; further: strong numbers were not always called active
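Read-out: GFP/RFP fluorescence ratio; Test system: RFP-PRO-GFP reporter HT1080 cells; Compound dosing: single-point 20 µM compound, 1% DMSO; Times: overnight compound exposure at 37 °C.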
eIF4H FP inh: inhibitors of RNA binding by human eIF4H | eIF4H fluorescence polarization binding assay | inhibition, % at 35 µM | 0.94% of 290,000 active;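 active means 50% or more with normal probe brightness, or confirmed in later tests; inconclusive means above 50% with abnormal brightness, or retests that disagree; inactive means below 50% or failed in later tests; about a fifth of its hits are not listed in these tables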;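 further: calls also rest on retests at 20 µM and on dose response follow-up; 0% = protein and probe with vehicle and 100% = probe without protein; strong numbers were not always called active; many hits fall short of the cut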
Yeast UUG start: modulators of start codon recognition fidelity in yeast; S. cerevisiae UUG-firefly luciferase reporter, luminescence/redox ratio; activity score, % at 18.7 µM; 0.13% of 350,000 active; AID 602363;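 active means replicate mean at a twofold rise or more, about +100% in these data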;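 further: firefly luciferase made from a UUG start codon reports start codon fidelity; reporter light over untreated wells divided by growth signal over untreated wells; some hits fall short of that in this replicate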
HIV Env fusion: blocks HIV Env-driven cell-cell fusion. HeLa-JRFL Env/CEM21 cell fusion, luciferase. inhibition, % at 12.3 µM. 1.1% of 360,000 active. AID 651610;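 active means mean replicate inhibition score of at least 50 and every replicate individually at or above 50; inconclusive means only one of the two criteria met; inactive means mean below 50 and not all replicates reaching 50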;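 further: 0% = plate neutral controls and 100% = maraviroc near 300 nM; one replicate is shown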
PABP FP inh: blocks human PABP binding to poly(A) RNA; P11940; fluorescence polarization; inhibition, % at 35 µM; 1% of 290,000 active; AID 2014;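 active means 50% or more with normal probe brightness, or confirmed in later tests; inconclusive means above 50% with abnormal brightness, or retests that disagree; inactive means below 50% or failed in later tests; about a fifth of its hits are not listed in these tables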;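 further: calls also rest on retests at 20 µM and on dose response follow-up; controls were probe without protein and protein plus probe with vehicle; some compounds called inactive have numbers as strong as hits; many hits fall short of the cut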
CSC inhib: blocks cancer stem cells | cancer stem cell-like cells viability, luminescence | inhibition, % at 7.5 µM | 1.1% of 300,000 active;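 active means mean at 75% or more and at least half the replicates too; inconclusive means mean and replicates disagree; tested in HMLE shEcad cells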;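 further: 0% = median of negative and 100% = median of positive control wells; the first replicate is given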
MT1-MMP act inh RFP: second read-out of MT1-MMP act inh, no call of its own (marks repeat the call); RFP signal change, %; measured here: RFP expression control read;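 0 = vehicle wells; hits needed this value within 50% of zero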
The depositor's hits bear a star; i = inactive; ? = inconclusive; · = not tested or not shown; & = joins results of further samples. No enrichment for hits (roughly 2.9% active in at least one column).

SMILES	Rce1 inhib	MT1-MMP act inh	MT1-MMP act inh RFP	eIF4H FP inh	Yeast UUG start	HIV Env fusion	PABP FP inh	CSC inhib
O=C(NC1CCCCC1)C(C1CC1)N1CCc2ccccc2C1 (stereo not given)	·	4	1	·	-10	7	·	·
CCOC(=O)Cc1csc(NC(=S)NC(=O)c2ccc(Cl)cc2)n1	i	5	5	-4	-16	·	5	-4
CS(=O)(=O)c1cccc(C(=O)Nc2ccccc2Cc2ccccc2)c1	i	3	1	-2	-4	-6	8	-1
CC(C)[C@H](NC(=O)OCc1ccccc1)C(=O)OCC(=O)Nc1ccc(N2CCOCC2)cc1	i	0	4	·	6	7	·	-7
CC(=O)NC(c1ccco1)c1cc(F)c2cccnc2c1O (stereo not given)	·	1	1	·	-11	-32	·	22
COc1ccc(S(=O)(=O)Nc2ccc3c(c2)CC(=O)N([C@@H](C)CO)C[C@H](C)[C@@H](CN(C)S(=O)(=O)c2ccc(F)cc2)O3)cc1	·	4	3	·	0	-5	·	9
COc1ccc(CCNC(=O)C(=O)c2c[nH]c3ccccc23)cc1OC	i	1	-1	-4	-15	-5	-3	-6
NNC(=O)c1ccc2ccccc2n1	·	-3	6	18	·	-12	-6	·
CCC(CC)C(=O)NN(C(=O)c1ccncc1)C1CC(=O)N(c2ccccc2)C1=O (stereo not given)	i	2	5	-9	·	-11	-2	1
CN(C)S(=O)(=O)c1cccc(NC(=O)c2cc3c(=O)n4ccccc4nc3s2)c1	i	-6	1	-13	·	-10	-11	-7
Nc1ccc(C(=O)Nc2cccc(NC(=O)c3ccc(N)cc3)c2)cc1	i	1	0	10	-6	2	0	-8
C=CCNc1ncnc2c1ncn2C1OC(CO)C(O)C1O (stereo not given)	i	11	4	0	-7	·	-6	77*
CCC(=O)Nc1nonc1-c1nc2ccccc2n1CCC(C)C	i	-8	-14	-3	6	·	2	-1
CNC(=O)c1ccc(C)c(NC(=O)C2=C(C)OCCS2)c1	i	3	4	-4	-8	3	0	-12
CC(C)C(=O)NNC(=O)CSc1nnnn1C(C)C	i	-1	1	0	-13	-12	-3	-16
COC(CNC(=O)c1cn(C)c2ccc(S(=O)(=O)N(C)C3CCCCC3)cc2c1=O)OC	i	-8	-1	-25	-4	-3	-6	7
Cc1ccc(Cc2nnc3n(-c4cccc(C)c4)nc(C(=O)c4ccccc4)n3c2=O)cc1	i	0	-9	12	5	-50	-2	5
C/C(=N\Nc1cccc([N+](=O)[O-])c1)c1cc2ccccc2o1	·	4	1	3	·	-55	6	4
CCN(CC(=O)NC1CCS(=O)(=O)C1)c1ccc(S(=O)(=O)N(CC)CC)cc1[N+](=O)[O-] (stereo not given)	·	2	-1	·	1	1	·	-1
c1ccc(-n2ncc3c2ncn2nc(CSc4nc5ccccc5s4)nc32)cc1	·	1	-2	7	-9	·	-1	8
CCc1ccc(NC(=O)CN(c2cc(C)cc(C)c2)S(=O)(=O)c2c(C)[nH]c(=O)[nH]c2=O)cc1	i	3	1	-10	-9	·	7	-16
CCc1ccccc1NC(=O)CN1CCN(C(=O)c2cccc(-n3cnnn3)c2)CC1	·	0	3	·	0	2	·	-22
COc1ccccc1-c1nnc(SC2CCc3ccccc3NC2=O)s1 (stereo not given)	i	-3	-11	-4	-11	25	1	-8
O=C(NCc1ccc(F)cc1)c1cc(S(=O)(=O)N2CCCCC2)ccc1Cl	·	2	3	·	-13	·	·	-10
CCCCN1C(=O)C(=O)N(CC(=O)Nc2sc(CC)cc2C(=O)OCC)C1=O	i	-1	-4	·	-7	-14	·	1
Cc1cccnc1NC(=O)c1c(O)c2ccccc2n(C)c1=O	i	7	10	5	-3	·	3	-10
CCOC(=O)c1cccc(NC(=O)Nc2ccc(OCC)cc2)c1	i	5	-10	-2	·	-24	-4	10
Cc1ccc2c(=O)c(C(=O)NCc3cccs3)c[nH]c2c1	i	11	0	2	-12	·	-3	2
COc1cc(OC)c(C2CC(=O)N3CN(c4ccc(C)cc4)CSC3=C2C#N)cc1OC (stereo not given)	i	-7	4	?	-13	-1	?	6
Cc1cccc(N(C)c2ccc3cc(S(=O)(=O)N4CCCC4)ccc3n2)c1	i	4	0	-5	26	19	3	20

The list goes on; the last 2 above are carried over.
SMILES	Rce1 inhib	MT1-MMP act inh	MT1-MMP act inh RFP	eIF4H FP inh	Yeast UUG start	HIV Env fusion	PABP FP inh	CSC inhib
COc1cc(OC)c(C2CC(=O)N3CN(c4ccc(C)cc4)CSC3=C2C#N)cc1OC (stereo not given)	i	-7	4	?	-13	-1	?	6
Cc1cccc(N(C)c2ccc3cc(S(=O)(=O)N4CCCC4)ccc3n2)c1	i	4	0	-5	26	19	3	20
O=[N+]([O-])c1cc(/C=N/N2CCN(C3c4ccccc4-c4ccccc43)CC2)ccc1Cl	i	-1	-2	2	·	·	-4	5
Cc1ccc(-n2c(C)cc(C3N=C(N)Nc4nc5ccccc5n43)c2C)c(C)c1 (stereo not given)	i	-4	-7	-8	-4	·	-15	13
Cc1nc(C)c(-c2ccn(C(=O)NC(C)C)n2)s1	i	2	5	-4	-23	3	-11	4
COc1ccc(C(=O)NCCc2ccccc2)cc1[N+](=O)[O-]	i	2	-1	-12	-17	-12	11	-3
COc1ccc(S(=O)(=O)NCCC(=O)N2CCCC2)cc1N(C)S(C)(=O)=O	i	0	2	-5	-10	-9	-3	3
CCOC(=O)CSc1nc(NCc2ccco2)c2ccccc2n1	i	1	6	7	-1	26	4	-5
COc1ccccc1NC(=O)Cn1c([N+](=O)[O-])cnc1C	i	2	0	-5	-5	3	1	-16
COc1cccc(C(=O)N2CCN(C(=O)Cc3ccccc3)CC2)c1	i	2	5	6	·	14	-9	-8
CCc1ccc(N(CC)C(=O)c2ccc3c(Cl)c4c(nc3c2)CCC4)cc1	i	-5	-7	-6	-6	3	4	·
CCCOc1c(Br)cc(C2C3=C(CCCC3=O)N(C)C3=C2C(=O)CCC3)cc1OC	i	-2	-2	?	·	-5	-6	-8
Cc1ccc(C2C3=C(CC(C)(C)CC3=O)Nc3[nH]c(=S)[nH]c(=O)c32)cc1 (stereo not given)	i	-1	6	16	3	-45	2	-8
CCOC(=O)c1cnc(SCc2nc(N)nc(Nc3ccccc3OC)n2)nc1N	i	·	·	5	·	8	5	-3
O=C(NC1CCN(S(=O)(=O)c2ccc(Cl)cc2)CC1)C1CCCCC1	i	0	-1	1	-7	10	7	-2
O=C(NCCCO)/C(=C\c1cn(-c2ccccc2)nc1-c1cccnc1)NC(=O)c1ccccc1	i	4	2	-7	·	-14	-2	-4
COc1ccc(C2SCCN2S(=O)(=O)c2ccc(F)cc2)cc1OC (stereo not given)	i	0	2	1	-10	·	3	-4
O=C(Nc1ccccc1C(=O)NCCCN1CCOCC1)c1ccccc1	i	1	8	-6	-1	8	7	-23
CCOc1ccc(C(O)(CCC(C)C)C(CN2CCOCC2)c2ccccc2)cc1 (stereo not given)	i	-31	-32	-11	0	72*	7	8
COc1ccc(Br)cc1CN(C)CC(=O)NCCc1ccc(S(N)(=O)=O)cc1	i	2	-5	6	-24	9	5	-10
COc1ccc(NC2=NCC(Cc3ccc(Br)cc3)S2)cc1 (stereo not given)	i	-44	-38	0	·	-22	-11	64
COc1cccc(-c2sc3ccc(OC)cc3c2-c2ccc(OCCN3CCOCC3)cc2)c1	·	-3	3	·	-9	·	·	104*
CO/N=C/C(c1ccc(Cl)nc1)S(=O)(=O)c1ccccc1 (stereo not given)	i	0	4	-3	-12	10	1	-11
Oc1ccc2ccccc2c1/C=N/n1cnnc1	i	1	6	-1	-12	-420	-10	0
COc1ccc(OC)c(-n2c(C)nc3cc(C(=O)O)ccc32)c1	i	0	4	-2	-18	·	13	1
NC(=O)CSc1nnc(-c2ccc(O)cc2)n1Cc1ccco1	i	4	7	1	-25	-7	-3	-18
Cc1ccc(S(=O)(=O)N2CCOCC2)cc1NC(=O)CSc1ncccn1	i	-1	4	·	·	2	·	-3
Cc1c(CCC(C)C)c(=O)n2c([nH]c3ccccc32)c1C#N	i	1	-2	-2	0	·	7	38
Cc1cc(C)n2nc(C(=O)Nc3ccc(S(=O)(=O)N(C)C)cc3)nc2n1	i	-2	4	-10	-19	-3	-7	-3
Cc1cccc(NC(=O)c2cc(S(=O)(=O)N3CCc4ccccc43)cn2C)c1	i	4	4	0	-11	28	-15	-5
CN(C)/C=C1/Oc2c(ccc3ccccc23)C1=O	i	-4	-13	18	·	-6	3	-4
COc1ccc(S(=O)(=O)N(C)C[C@H]2OCCCC[C@@H](C)Oc3ccc(N(C)C)cc3C(=O)N([C@H](C)CO)C[C@@H]2C)cc1	·	-1	2	·	-2&2	-11	·	·
CC/C(=C(/CC)c1ccc(O)cc1)c1ccc(O)cc1	i	-2	-13	0	-35	-6	-1	68
Cc1cc(=O)oc2c(C)c(OC(C)C(=O)NCCCn3ccnc3)ccc12 (stereo not given)	i	2	1	-8	-17	-6	-5	12
CCOC(=O)Cc1cc(C)[nH]c1C(=O)OCC	i	0	1	-1	-12	6	-5	-17
CCC(=O)c1cc2c(C)cc(=O)oc2c(C)c1OC(=O)C(C)C	i	-9	-7	0	·	·	6	-8
CN(C)c1ccc(CNC(=O)CCc2ccc(S(=O)(=O)N3CCCCCC3)cc2)cc1	·	6	-5	·	-11	30	·	·
COC(=O)Cn1c(=O)c2c(n(Cc3ccccc3)c1=O)N/C(=C/c1ccc(OC)cc1)C2=O	i	9	0	-1	·	17	4	14
COc1ccc(NC(=O)C=C(C)C)cc1Cl	i	2	-1	-5	-12	·	-1	-1
COc1cccc(C2C3=C(CC(C)(C)CC3=O)Nc3cc(OC)c(OC)cc32)c1 (stereo not given)	i	4	-1	-2	·	-7	-2	·
Oc1ccc2ccc3cccc[n+]3c2c1	i	-280	-7	·	-6	-25	·	2
COc1cc(OC)c(C2=NOC(C(=O)N3CCc4ccccc4C3)C2)cc1Cl (stereo not given)	i	3	-3	-4	26	·	6	11

HIV Env fusion, hit marks shown above.
| SMILES | Rce1 inhib | MT1-MMP act inh | MT1-MMP act inh RFP | Yeast UUG start | HIV Env fusion |
| --- | --- | --- | --- | --- | --- |
| CCOc1ccc(C(O)(CCC(C)C)C(CN2CCOCC2)c2ccccc2)cc1 (stereo not given) | i | -31 | -32 | 0 | 72* |

Going on with the list:
SMILES	Rce1 inhib	MT1-MMP act inh	MT1-MMP act inh RFP	eIF4H FP inh	Yeast UUG start	HIV Env fusion	PABP FP inh	CSC inhib
O=C(Nc1cccc([N+](=O)[O-])c1)C1COc2ccccc2O1 (stereo not given)	i	3	-12	-5	-6	-4	-1	6
COCCn1c(C)cc(C(=O)CSc2nc(C)cc(C)c2C#N)c1C	i	-4	-7	10	10	-14	21	-5
CC(C)=CC(=O)Nc1nnc(-c2cccnc2)s1	i	3	-3	-2	2	-29	-1	15
Cc1cc(Br)ccc1NC(=O)CCS(=O)(=O)c1cccc2nonc12	i	3	-2	2	-9	-8	-11	·
O=c1c2c3c(sc2nc2n1CCC2)CCCCC3	i	1	1	-4	·	6	-4	-8
CN(CC(=O)Nc1cccc(F)c1)C(=O)c1ccccc1Sc1ccccc1C#N	·	2	-2	·	2	12	·	-7
COc1ccc(S(=O)(=O)Nc2ccc(S(=O)(=O)Nc3nccs3)cc2)cc1	i	0	5	0	-9	-1	2	·
C[n+]1ccccc1/C=C1\Sc2ccccc2N1CCO	i	-14	-8	·	-6	-44	·	-13
O=C(NC(=S)N1CCN(c2ccccc2)CC1)c1ccccc1	·	2	2	-1	-22	-6	-5	-6
Cc1ccc(NC(=O)c2ccc(CSc3nccc(C)n3)cc2)cc1	i	-1	-16	-8	-8	·	-4	2
C[N+](C)(CC#N)C/C=C\c1ccccc1	i	0	3	-8	·	11	-6	-12
